Compound activity from PubChem.
Marburg entry inh: inhibitors of Marburg virus binding or cell entry. Marburg virus pseudotyped entry inhibition, cell reporter; control for the full effect not named in the record; about a third of the inactives were read at about 46 µM. Potency, µM (doses to about 37.8 µM), for inactives: top-dose activity change, negative = inhibition, most hits filed as inhibitors. 300,000 compounds, 1.8% hits; active = well fitted inhibition curve with a large enough effect; inconclusive = small, poorly fitted or top-dose-only effect, or effect the other way; inactive = flat fitted curve, though single readings scatter; tested in HEK293 cells; about a fifth of its hits are not listed in these tables; note: % is set by controls: 0 for no effect and ±100 for the full control effect; luciferase read-out
Cruzain inh Det: inhibitors of Trypanosoma cruzi cruzain with detergent. P25779. 200,000 compounds, 0.43% hits. Potency, µM, without a hit: max response, negative = inhibition, hits mostly inhibitors. purified cruzain, Z-FR-AMC fluorescence, 0.01% Triton; active = well fitted curve in the direction sought with a large enough effect; inconclusive = small, poorly fitted or top-dose-only effect, or another doubt; inactive = no such curve, though single readings can be large; an effect the other way counts as inactive or inconclusive;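 note: plate controls were neutral wells for no effect and buffer without enzyme for full effect; nearly all actives have a fitted effect of over 40% in size; top concentration of the series not given in the record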
Target sequence (P25779 123-467 limits assumed): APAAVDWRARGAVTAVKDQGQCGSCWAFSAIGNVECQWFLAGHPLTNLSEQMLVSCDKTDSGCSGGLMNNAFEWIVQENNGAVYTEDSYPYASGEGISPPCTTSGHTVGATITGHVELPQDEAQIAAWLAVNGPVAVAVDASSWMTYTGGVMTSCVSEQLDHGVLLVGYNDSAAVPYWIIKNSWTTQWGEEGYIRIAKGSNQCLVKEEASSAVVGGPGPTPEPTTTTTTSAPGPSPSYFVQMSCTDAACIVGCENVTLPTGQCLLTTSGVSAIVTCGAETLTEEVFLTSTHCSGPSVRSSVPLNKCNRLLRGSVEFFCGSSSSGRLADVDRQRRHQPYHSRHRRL
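Compounds were screened in titration against cruzain (1.5 nM) with 0.01% Triton X-100 to counter colloidal aggregation. Activity was the AMC fluorescence increase over 60 s after adding 2 uM Z-FR-AMC at pH 5.5.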
LASV entry inh: blocks Lassa virus binding to or entry into cells. Potency, µM (series often up to 37.9 µM), for the others: at the top dose activity change, negative = inhibition, actives largely listed as inhibitors. AID 540256. Lassa virus pseudotype entry inhibition, cell reporter; control for the full effect not named in the record. 300,000 compounds, 1.2% hits; active means well fitted inhibition curve with a large enough effect; inconclusive means small, poorly fitted or top-dose-only effect, or effect the other way; inactive means flat fitted curve, though single readings scatter; tested in HEK293 cells; note: % is set by controls: 0 for no effect and ±100 for the full control effect; nearly all actives have a fitted effect of over 50% in size; luciferase read-out
Cruzain inh noDet: cruzain (T. cruzi) inhibition without detergent. purified cruzain, Z-FR-AMC fluorescence, no detergent. Potency, µM, inactives show max response, negative = inhibition, usual class: inhibitors. 200,000 compounds, 2.3% hits. AID 1476; active = well fitted curve in the direction sought with a large enough effect; inconclusive = small, poorly fitted or top-dose-only effect, or another doubt; inactive = no such curve, though single readings can be large; an effect the other way counts as inactive or inconclusive;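 note: plate controls were enzyme without inhibitor for no effect and buffer without enzyme for full effect; nearly all actives have a fitted effect of over 40% in size; top concentration of the series not given in the record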
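Purified cruzain at 1.5 nM, pre-incubated 15 min with compound at room temperature in 100 mM sodium acetate pH 5.5, 5 mM DTT, 0.00005% Triton X-100. Reaction started with 2 uM Z-FR-AMC; AMC fluorescence increase over 60 s gives rate.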
SARS PLpro yeast: SARS-CoV PLP inhibition in yeast; Potency, µM (doses to about 32.9 µM), inactives show at the highest dose activity, positive = growth rescue; AID 485353; 330,000 compounds, 0.19% hits; S. cerevisiae expressing SARS-CoV PLpro, growth rescue; control for the full effect not named in the record; note: 0% is about no effect; nearly all actives have a fitted effect of over 55% in size; growth read by luminescence after 48 h
RE007 growth inh: less growth of the S. pombe RE007 Vpr strain | 360,000 compounds, 0.21% hits | Potency, µM (titrated, usually from 92.2 µM), inactives show at the top dose activity change, negative = less growth | S. pombe RE007 Vpr strain, BacTiter-Glo ATP luminescence, 24 h; control for the full effect not named in the record; active = well fitted falling curve with a large enough effect; inconclusive = small, poorly fitted or top-dose-only effect; inactive = no such curve, though single readings can be large or run the other way;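 note: % is set by controls: 0 for no effect and ±100 for the full control effect; nearly all actives have a fitted effect of over 50% in size; the assay follows cell death caused by Vpr and the record does not say whether a fall means rescue or toxicity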
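Fission yeast strain RE007, carrying one chromosomally integrated HIV-1 vpr copy, was seeded at OD 0.01 in PMG+AL medium with 23 nL pinned compound. After 24 h at 30 °C and 99% humidity, viability was read by BacTiter-Glo luminescence.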
NS1 inh: blocks influenza NS1 protein function; S. cerevisiae slowed by influenza A NS1, growth recovery by OD600; Potency, µM (top dose mostly 46.1 µM), inactives show at the highest dose activity, positive = more growth; 270,000 compounds, 0.4% hits; note: actives are rising curves; nearly all actives have a fitted effect of over 50% in size
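Read-out: OD600 growth recovery of NS1-expressing budding yeast. Cells grown overnight at 30C in -URA glucose medium, washed, resuspended and diluted 1:100 in 2% galactose assay medium, pH 6.0. Same strain lacking NS1 served as positive control.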
StopGo reporter: lowers the luciferase signal of an FMDV 2A StopGo reporter; human cells with a luciferase reporter of 2A StopGo recoding; control for the full effect not named in the record; Potency, µM (top dose mostly 57.9 µM), for inactives: at the highest dose signal change, negative = less light; 410,000 compounds, 1.2% hits; active = well fitted falling curve with a large enough effect; inconclusive = small, poorly fitted or top-dose-only effect; inactive = no such curve, though single readings can be large or run the other way; tested in HEK293T cells; note: % is set by controls: 0 for no effect and ±100 for the full control effect; nearly all actives have a fitted effect of over 45% in size; luciferase light after 4 h
An asterisk follows results filed as active; ? = inconclusive; nt = not tested or not shown; [ ] = another dose, or the depositor's remark. Unless noted, calls come from the whole dose curve; as a rule, active means well fitted rising curve with a large enough effect; inconclusive means small, poorly fitted or top-dose-only effect; inactive means no such curve, though single readings can be large or run the other way. Potency is the fitted concentration of half-maximal effect.

SMILES	Marburg entry inh	Cruzain inh Det	LASV entry inh	Cruzain inh noDet	SARS PLpro yeast	RE007 growth inh	NS1 inh	StopGo reporter
Cc1ccc(-n2nc3c(=O)n(C(C)C(=O)NCc4ccc5c(c4)OCO5)nc(C)c3c2C)cc1 (stereo not given)	nt	nt	nt	nt	-1.2%	-2.3%	3.1%	-25.2%
O=C(Nc1cc(Cl)cc(Cl)c1)C(NCC1CCCO1)c1ccccc1 (stereo not given)	?	-4.2%	-19.9%	0.2%	26.6%	-4.9%	-17.7%	-19.2%
Cc1cccc(CNC(=O)c2oc3c(c2C)-c2nn(Cc4ccccc4Cl)cc2CC3)c1	nt	-1.6%	4.3%[46.1 µM]	-4.0%	nt	nt	nt	-15.6%
Cc1ccc2cc(C=C(C#N)C#N)c(N3CCCCC3)nc2c1	-23.4%	-20.5%	21.4%	-3.8%	-2.6%	-17.2%	-32.8%	nt
Cc1ccc(N2CCCn3c2cc(C)c(C#N)c3=O)cc1Cl	25.3%	-7.8%	0.5%	-17.1%	7.9%	0.1%	19.6%	9.7%
O=S(=O)(C(=CNc1ccccc1)S(=O)(=O)c1ccccc1)c1ccccc1	-12.8%	6.9%	-7.2%	-8.2%	-23.8%	11.0%	6.1%	28.9%
Cc1[nH]c2ccc(Br)cc2c(=S)c1C/C=C/Cl	nt	nt	nt	nt	-0.8%	24.1%	-0.8%	-6.7%
COc1cccc(NS(=O)(=O)c2ccc3c(c2)CCCN3C(=O)C2CCC2)c1	nt	-4.0%	?	-4.5%	nt	nt	nt	-8.5%
O=C(NC(=S)Nc1ccccc1)c1cncc(C#Cc2ccccc2)c1	-11.8%[46.1 µM]	nt	?	nt	-1.0%	15.8%	-3.1%	-0.5%
Cn1cccc1C(=S)N1CCOCC1	-5.9%	-1.7%	-2.3%	-10.8%	1.2%	-7.3%	-4.2%	-0.1%
Cc1ccc(S(=O)(=O)N2C(=O)c3cccc4cccc2c34)cc1	nt	nt	nt	nt	-0.1%	2.2%	8.3%	-26.1%
Cc1ccnc(SCC(=O)NC2CC2)n1	-3.2%[46.1 µM]	nt	13.1%[46.1 µM]	nt	?	-16.3%	2.8%	-15.2%
Cc1nnc(NS(=O)(=O)c2ccc(Br)cc2)s1	2.1%[46.1 µM]	nt	2.1%[46.1 µM]	nt	-0.4%	4.4%	-16.9%	15.5%
Cc1nc2ccc(NC(=O)c3ccc(S(=O)(=O)N4CCOCC4)cc3)cc2s1	2.3%[46.1 µM]	2.9%	-8.5%	6.0%	2.4%	12.0%	-2.2%	?
C=CCn1c(SCC(=O)NC)nnc1C12CC3CC(CC(C3)C1)C2	?	nt	23.4%[46.1 µM]	nt	-2.6%	-5.0%	11.1%	-10.3%
Cc1cc(=O)[nH]c(Nc2c(C)n(C)n(-c3ccccc3)c2=O)n1	6.0%[46.1 µM]	3.3%	2.3%	-8.4%	2.8%	4.2%	3.6%	-8.2%
Nc1nc2ccc(C(=O)Nc3ccc(N4CCOCC4)cc3)cc2s1	?	nt	6.2%	nt	-7.9%	14.6%	nt	-6.1%
CCOC(=O)c1ccc(N=C2SC(C(=O)NCCc3ccccc3)CC(=O)N2C)cc1 (stereo not given)	-0.4%[46.1 µM]	nt	-7.6%[46.1 µM]	nt	-0.2%	0.5%	1.1%	-27.9%
COc1ccc(NC(=O)CSc2oc(-c3cccs3)nc2S(=O)(=O)c2ccccc2)c(OC)c1	-2.2%[46.1 µM]	-4.6%	-26.1%[46.1 µM]	-19.8%	nt	nt	nt	?
O=C(NCCCC(=O)N1CCCCC1)c1ccc(Cl)cc1	14.2%	nt	-2.0%	nt	1.9%	-13.6%	-5.0%	18.9%
CCCCN(C)C(=O)c1cc2cc([N+](=O)[O-])cc(OC)c2oc1=O	27.7%[46.1 µM]	nt	14.6%	nt	-3.2%	7.5%	nt	-30.0%
CCCCNC(=S)NNC(=O)C1=NN(c2cc(C)ccc2C)C(=O)CC1	?	nt	-29.3%[46.1 µM]	nt	10.6%	9.4%	17.1%	-14.6%
CCOc1ccc(CCNC(=O)COc2cccc(-n3cnnn3)c2)cc1OCC	14.0%	nt	-2.8%	nt	-5.2%	13.7%	nt	-12.8%
O=C(Cc1ccc(F)cc1)Nc1c2c(nn1-c1cccc(Cl)c1)CS(=O)C2 (stereo not given)	?	-1.9%	-2.3%	1.7%	-2.7%	11.5%	2.8%	-14.6%
CC(C)N1C(=O)CCC1C(=O)N1CCC(Cc2ccccc2)CC1 (stereo not given)	10.2%	1.1%	2.2%	12.2%	6.9%	-4.7%	-9.7%	-1.2%
COc1cccc(CNC(=O)C2CCC(CNS(=O)(=O)c3cccc4nsnc34)CC2)c1 (stereo not given)	3.4%	-1.2%	nt	-3.5%	-1.5%	-14.9%	-7.6%	0.0%
COC(=O)c1sccc1N/N=C/c1ccc(OC)c(OC)c1OC	?	-8.1%	?	4.8%	-5.9%	0.2%	-8.0%	1.6%
COc1cc(NC(=O)CN2c3ccccc3S(=O)(=O)c3ccccc32)cc(OC)c1	nt	-6.6%	-17.7%[46.1 µM]	?	nt	nt	nt	-12.7%
CCCCn1c(N)c(N(CC(C)C)C(=O)CC(NC(=O)c2ccccc2)c2ccccc2)c(=O)[nH]c1=O (stereo not given)	-11.9%	nt	-1.3%	nt	-0.5%	2.8%	nt	-10.6%
Cc1cccc(N2CCN(S(=O)(=O)c3ccc4c(c3)n(C)c(=O)c(=O)n4C)CC2C)c1 (stereo not given)	5.7%	1.0%	-7.9%	-28.6%	2.6%	-9.2%	-1.3%	-6.1%
Cc1cccc(NC(=O)CNC(=O)C23CC4CC(CC(Cl)(C4)C2)C3)n1	-5.0%	nt	-4.9%	nt	4.6%	-0.2%	nt	-12.1%
COc1ccc(N(CC(=O)Nc2cc(C)cc(C)c2)S(=O)(=O)c2ccccc2[N+](=O)[O-])c(OC)c1	5.1%[46.1 µM]	nt	18.2%[46.1 µM]	nt	1.0%	-4.4%	0.6%	-6.0%
CC1=C(C(=O)Nc2cc(C(=O)N3CCN(c4cccc(C)c4C)CC3)ccc2C)SCCO1	nt	nt	nt	nt	-9.6%	1.1%	-38.7%	-8.6%
CC(=O)N/C(=C\c1ccccc1)C(=O)OCC(=O)c1c(N)n(C)c(=O)n(C)c1=O	3.1%	nt	?	nt	-0.6%	14.6%	nt	9.0%
Cc1ccc(NC(=O)NC2=N/C(=C(/C#N)C(=O)N3CCCC3)c3ccccc32)cc1	?	-3.1%	13.1%	-8.4%	5.7%	-12.0%	-29.2%	-0.9%
CC(C)(C)c1ccc(CSc2nnc(-c3ccccn3)n2Cc2ccco2)cc1	?	-15.1%	-56.7%	2.9%	-23.7%	-0.1%	-15.5%	?
CSc1ccc(/C=C/C(=O)c2ccc(NC(=O)Cc3ccccc3)cc2)cc1	-2.9%	0.5%	-5.2%	?	1.9%	-13.7%	4.2%	-15.3%
O=C1C=C(NCCN2CCOCC2)C(=O)c2cnccc21	2.91µM*	-8.3%	?	0.3%	-51.6%	nt	-39.7%	nt
O=C(NCc1ccc(Cl)cc1Cl)C(=O)N1CCCCC1	-23.1%	1.4%	3.5%	-2.8%	2.1%	-8.5%	5.2%	-8.1%
CC(=O)n1cc([C@@H]2C=C(C(=O)O)O[C@H](OCc3ccc(CO)cc3)C2)c2ccccc21	nt	nt	nt	nt	-0.7%	8.0%	3.7%	-10.8%
C=CCOC(=O)c1ccc(-n2cnc(C)n2)nc1	?	nt	13.9%	nt	0.1%	8.1%	2.1%	30.5%[activator]
CCOC(=O)c1cnn2c(C(F)(F)F)cc(-c3cn(C)nc3C)nc12	-14.8%	-4.5%	3.6%	23.3%	5.5%	-5.6%	-23.8%	?
CN1CCN(c2nc3ccccc3nc2NS(=O)(=O)c2ccc(Br)cc2)CC1	3.4%	nt	8.0%	nt	2.7%	-1.9%	nt	-5.9%
Cc1ccc2[nH]c3c(=O)n(CCN4CCOCC4)cnc3c2c1	4.6%	-10.1%	8.5%	-26.1%	1.8%	-4.2%	3.9%	46.2%[activator]
COCCN(C(=O)COC(=O)/C=C/c1ccc(SC)cc1)c1c(N)n(Cc2ccccc2)c(=O)[nH]c1=O	-0.2%	nt	-1.0%	nt	nt	0.7%	nt	-5.5%
CCSc1nc2sc3c(c2c(=O)[nH]1)CCCC3	8.3%	-2.5%	-2.0%	?	15.0%	14.3%	-4.8%	0.0%
O=C(NNS(=O)(=O)c1ccc(Br)cc1)c1ccccc1-n1cccc1	nt	nt	nt	nt	-1.2%	13.2%	4.9%	31.0%[activator]
CCCCC(CC)C(=O)NCc1ccc(F)cc1 (stereo not given)	-3.3%	-1.6%	-3.3%	-7.7%	-18.1%	nt	-11.8%	-1.5%
CCn1cc(C(=O)NCCc2ccc(Cl)cc2)c(=O)c2cc(S(=O)(=O)N(C)C3CCCCC3)ccc21	17.8%[46.1 µM]	-2.2%	4.1%[46.1 µM]	-7.1%	nt	nt	nt	9.1%
CC(=O)N(/C=C1\SC(=S)N(c2ccccc2)C1=O)c1ccccc1	nt	nt	nt	nt	-7.6%	-9.8%	4.1%	20.0%

(next part)
SMILES	Marburg entry inh	Cruzain inh Det	LASV entry inh	Cruzain inh noDet	SARS PLpro yeast	RE007 growth inh	NS1 inh	StopGo reporter
COCCn1nnnc1C(c1cccc(C(F)(F)F)c1)N1CCOCC1 (stereo not given)	10.1%	-0.5%	20.0%	5.1%	4.6%	9.6%	9.8%	6.8%
CC(=O)Nc1ccc(NC(=O)[C@@H]2CCCN2S(=O)(=O)c2ccc3c(c2)OCCO3)cc1	6.3%	nt	1.6%	nt	-0.2%	18.6%	nt	0.4%
CN(c1ccccc1)S(=O)(=O)c1ccc(C(=O)Nc2ccncc2)cc1	0.7%	nt	-6.0%[46.1 µM]	nt	nt	-2.9%	nt	?
COc1ccc(C)cc1NC(=O)CSc1nc(=O)[nH]c2c1CCCC2	nt	8.0%	-1.6%[46.1 µM]	-5.1%	nt	nt	nt	-20.8%
O=C(CSc1nnc(CNc2ccccc2)o1)N1CCCc2ccccc21	?	-0.1%	-21.8%	-0.4%	-0.6%	-24.1%	-16.5%	-0.3%
